Assay outcomes: PubChem BioAssay, several laboratories
LANA-H2A inh – blockers of LANA interaction with H2A/H2B – biochemical, FP readout, HTS, primary screen; Protein LANA1 (Human herpesvirus 8 type P (isolate GK18)), Q9QR71; cell-free LANA-H2A/H2B peptide, fluorescence polarization; inhibition, % (concentration not given with the values); 0.6% of 320,000 active; AID 2629, 2010; in the data active = inhibition mostly above about 10%, no sharp cut-off; inactive = mostly below about 6.7%;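 note: stock transfer was 7.5 nL into about 10 µL; 0% = median of vehicle wells and 100% = median of positive control wells; one replicate is shown; the record names a cut of 25% in any replicate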
HNF4A DNA FP – change in binding of human HNF4A to DNA, primary screen, biochemical, fluorescence polarization, FITC-DNA; 1 h; activity change, % at 10 µM; 0.3% of 360,000 active; in the data active = activity change above about 30%, passing the limit was not always enough;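 note: controls were the assay level and a saturating level of protein; the project sought stronger binding though the title names inhibitors; some compounds called inactive have numbers as strong as hits; positive values seem to mean higher polarization but the record does not say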
Target sequence (P41235 whole entry, looked up): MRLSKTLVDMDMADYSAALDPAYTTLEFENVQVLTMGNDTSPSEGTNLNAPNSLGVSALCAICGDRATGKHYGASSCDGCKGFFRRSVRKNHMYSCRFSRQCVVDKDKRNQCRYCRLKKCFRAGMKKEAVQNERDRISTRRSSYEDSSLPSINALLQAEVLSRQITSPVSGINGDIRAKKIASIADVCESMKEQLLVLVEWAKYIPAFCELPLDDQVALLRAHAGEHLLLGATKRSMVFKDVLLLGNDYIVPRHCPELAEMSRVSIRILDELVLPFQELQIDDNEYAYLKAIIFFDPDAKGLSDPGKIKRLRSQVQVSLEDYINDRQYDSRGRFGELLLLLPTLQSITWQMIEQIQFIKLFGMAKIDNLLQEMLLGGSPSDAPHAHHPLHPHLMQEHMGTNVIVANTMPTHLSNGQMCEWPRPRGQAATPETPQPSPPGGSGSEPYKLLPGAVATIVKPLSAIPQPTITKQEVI
Vif A3G – inhibitors of Vif binding to APOBEC3G peptide, primary screen, biochemical, TR-FRET, GST-Vif 1-94, biotin-A3G peptide, dose response retest (AID 1117319). Virion infectivity factor (Human immunodeficiency virus type 1 group M subtype B (isolate …. TR-FRET GST-Vif / biotin-A3G peptide binding; higher % means a stronger effect; test concentration not given here; strong numbers were not always called active. one-dose inhibition, %; IC50 in µM for titrated hits. 0.57% of 260,000 active;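 active = above the screen mean plus three standard deviations and confirmed in dose response; inconclusive = results disagree or hit not tested in dose response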;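 note: Vif residues 1-94 fused to GST binding biotinylated APOBEC3G peptide 110-148; 0% = full assay without inhibitor and 100% = GST in place of GST-Vif; retest series ran down from 100 µM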
Calb FLC – C. albicans growth inhibition with fluconazole, primary screen, CaCi-2 strain, Alamar Blue fluorescence; C. albicans CaCi-2 (fluconazole-resistant clinical isolate) + fluconazole, 48 h; growth inhibition, % (no concentration beside the values); 0.57% of 300,000 active;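 active = most replicates above 75%; inconclusive = exactly half above 75%; inactive = most below 75%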;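 note: all wells also contain fluconazole at 8 µg/ml as a sub-toxic cotreatment; 0% = median of DMSO wells and 100% = median of geldanamycin control wells; wells of about 8 µL received 7.5 nL stock; the first replicate is given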
ALR H2O2 inh – inhibitors of human ALR sulfhydryl oxidase, primary screen, biochemical, H2O2 detection, HRP-luminol luminescence, single point; 3.8% of 290,000 active; AID 485317, 2010; inhibition, % (test concentration not listed); purified ALR, DTT oxidation;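 active = mean and each replicate at 75% or more; inconclusive = only one of the two met; inactive = neither met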;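 note: stock transfer was 7.5 nL into about 7.5 µL; 0% = neutral wells and 100% = wells with inactivated enzyme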
Target sequence (P55789 whole entry, looked up): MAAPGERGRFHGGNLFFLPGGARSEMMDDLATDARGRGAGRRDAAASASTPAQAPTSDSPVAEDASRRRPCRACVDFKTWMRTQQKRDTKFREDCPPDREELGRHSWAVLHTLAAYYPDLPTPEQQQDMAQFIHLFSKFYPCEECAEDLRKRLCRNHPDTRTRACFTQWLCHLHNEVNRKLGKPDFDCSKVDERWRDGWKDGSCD
RanGTP-Imp inh – inhibitors of RanGTP-importin-beta interaction, primary screen, biochemical, FRET, CFP-Ran, YFP-importin-beta, homogeneous | inhibition, % (concentration not given with the values) | Ran GTPase (GTP-bound) - importin-beta complex | cell-free CFP-Ran/YFP-importin-beta FRET ratio | 1.1% of 300,000 active;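 active = most replicates above 15%; inconclusive = exactly half above 15%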;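 note: 0% = DMSO wells and 100% = Ran loaded with GDP instead of GTP; wells of about 40 µL received 100 nL stock; the first replicate is given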
B2AR ag – beta2AR agonists driving receptor internalization, primary screen, cell-based, FAP fluorogen, flow cytometry | 0.43% of 340,000 active | Am2.2-beta2AR cells; reference of the scale not given here | AID 504454, 2011 | response, % (concentration not given with the values) | Beta-2 adrenergic receptor (Homo sapiens), P07550;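 active = response above a set limit, near 3 SD of response in nonfluorescent compounds, cut at about 42% in these data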;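 note: stock transfer was 100 nL into about 11 µL; a reference agonist was the positive control; negative values mostly stem from fluorescent compounds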
Target sequence (P07550 whole entry, looked up): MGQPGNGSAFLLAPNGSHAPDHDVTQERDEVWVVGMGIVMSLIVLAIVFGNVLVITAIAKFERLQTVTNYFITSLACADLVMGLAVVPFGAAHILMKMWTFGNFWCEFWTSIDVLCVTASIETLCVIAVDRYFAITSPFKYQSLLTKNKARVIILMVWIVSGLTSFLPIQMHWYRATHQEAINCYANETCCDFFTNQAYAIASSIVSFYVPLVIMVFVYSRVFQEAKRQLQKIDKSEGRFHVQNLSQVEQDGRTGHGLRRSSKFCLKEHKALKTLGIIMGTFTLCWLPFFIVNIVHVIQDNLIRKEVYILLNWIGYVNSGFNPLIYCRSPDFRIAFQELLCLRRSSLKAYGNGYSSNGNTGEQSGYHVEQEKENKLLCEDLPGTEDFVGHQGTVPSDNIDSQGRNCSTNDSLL
The depositor's hits bear a star; ? = inconclusive; . = no result given; + = active, no number.

SMILES | LANA-H2A inh | HNF4A DNA FP | Vif A3G | Calb FLC | ALR H2O2 inh | RanGTP-Imp inh | B2AR ag
O=C1NC(=O)C(CCc2ccncc2)(c2ccccc2)C(=O)N1 | 2.3 | 1.7 | 1% | 2 | -4 | 12 | 4
C[C@]12CC[C@H](O)C[C@H]1CC[C@@H]1C2CC[C@]2(C)[C@@H](C3=CC(=O)OC3)[C@@H](O)C[C@]12O (some centres not stated) | 0.5 | -1.7 | . | . | -1 | . | 9
C=CCCC1(CC)C(=O)NC(=S)NC1=O | . | -1.2 | -2% | . | . | . | -1
C=CCn1c(O)c(C(C)=NCCc2ccccc2)c(=O)[nH]c1=O | -1.0 | 3.9 | 30% | -5 | -1 | 23* | 6
CN(C)CCN=Cc1c(O)n(-c2cccc(C(F)(F)F)c2)c(=O)[nH]c1=O | 5.7 | 9.9 | 7% | 0 | -13 | 8.5 | 9
Cc1[nH]c2ccccc2c1CCCNC1CCCCC1 | -9.9 | 2.8 | -3% | 0 | 47 | 4.4 | 21
C=C1C(O)(c2ccccc2)C2CC[N+]1(C)CC2 (configuration not stated) | 0.6 | 0.4 | 7% | -1 | 0 | 2.5 | -7
O=C(Nc1cccc(Cl)c1)N1C[C@H]2C[C@@H](C1)c1cccc(=O)n1C2 | -1.1 | -0.4 | . | -3 | . | -6.8 | 10
Oc1ccc2ccccc2c1CN1CC=C(c2ccccc2)CC1 | 1.9 | 0.0 | 0% | 0 | -5 | 1.2 | 5
C=CC(=O)NCNC(=O)C=C | 10* | 3.1 | . | . | 0 | . | 5
CCC(=NCc1ccc(F)cc1)c1c(O)n(C)c(=O)n(C)c1=O | -5.6 | -3.4 | 5% | 5 | 2 | 3.7 | 1
CCOC(=O)C1=C(C)OC(N)=C(C#N)C12C(=O)Nc1ccc(C)cc12 (configuration not stated) | 1.7 | 2.4 | -7% | 2 | -5 | . | 4
O=C(O)[C@H]1NC[C@H]2C[C@H]21 | 3.0 | 10.0 | -2% | -7 | 0 | 0.8 | 1
Cc1ccc(CC(=O)N2CCN(Cc3ccccc3)CC2)cc1 | -4.0 | 0.7 | 1% | -15 | 3 | 4.9 | -1
CN(C)CCc1nc2ccccc2c(=O)n1-c1ccccc1 | 5.2 | . | -11% | -4 | -7 | 6.2 | .
COc1ccc(CCNCc2ccccc2F)cc1OC | 0.5 | 2.2 | -6% | -9 | 0 | -1.0 | -2
Cc1cccc(-n2c(O)c(C=Nc3ccc(S(N)(=O)=O)cc3)c(=O)[nH]c2=O)c1 | -0.9 | -2.6 | 15% | -3 | 6 | 0.4 | -7
COc1ccc(CCC(=O)N2CCC3(CC2)OCCO3)cc1 | 2.9 | 2.5 | 0% | 0 | -13 | 6.1 | -7
C[N+]12CCC(CC1)C(C(O)(c1cccc(Cl)c1)c1cccc(Cl)c1)C2 (configuration not stated) | 3.3 | 5.6 | 13% | 19 | -19 | 2.4 | -5
CCN1CCN(S(=O)(=O)c2cnc(Cl)c(Br)c2)CC1 | 3.6 | 0.2 | . | 21 | 9 | 2.5 | 3
CCSc1cc(C2C(C#N)=C(N)Oc3n[nH]c(C)c32)c(C)o1 (configuration not stated) | 0.2 | -1.3 | 3% | -9 | . | 2.9 | 16
Cc1nc2ccccc2c(=O)n1-c1ccc(F)cc1 | 5.0 | 5.5 | 9% | 3 | 8 | 3.7 | 1
COC(=O)C1=C(c2ccc(Cl)c(C(F)(F)F)c2)C[C@@H]2CC[C@H]1N2C(=O)NCCNC(C)=O | 7.8 | 1.6 | . | . | 1 | . | -1
CC(=O)N1CCN(Cc2ccc(Cl)nc2)CC1 | 2.1 | 0.8 | -7% | 0 | . | 4.8 | -3
COC1=C[C@@H]2C3=C([C@@H]2C1=O)[C@@H](NC(C)=O)CCc1cc(OC)c(OC)c(OC)c13 | -1.0 | -7.7 | . | . | 2 | . | -6

Exported with two lines to a compound: 4 of the compounds above
Below each compound: LANA-H2A inh | HNF4A DNA FP | Vif A3G | Calb FLC | ALR H2O2 inh | RanGTP-Imp inh | B2AR ag
C[N+]12CCC(CC1)C(C(O)(c1cccc(Cl)c1)c1cccc(Cl)c1)C2 (configuration not stated)
→ 3.3 | 5.6 | 13% | 19 | -19 | 2.4 | -5
COC1=C[C@@H]2C3=C([C@@H]2C1=O)[C@@H](NC(C)=O)CCc1cc(OC)c(OC)c(OC)c13
→ -1.0 | -7.7 | . | . | 2 | . | -6
COC(=O)C1=C(c2ccc(Cl)c(C(F)(F)F)c2)C[C@@H]2CC[C@H]1N2C(=O)NCCNC(C)=O
→ 7.8 | 1.6 | . | . | 1 | . | -1
C=CCn1c(O)c(C(C)=NCCc2ccccc2)c(=O)[nH]c1=O
→ -1.0 | 3.9 | 30% | -5 | -1 | 23* | 6

Taken from above:
`CC(=O)N1CCN(Cc2ccc(Cl)nc2)CC1` | LANA-H2A inh = 2.1
`COC(=O)C1=C(c2ccc(Cl)c(C(F)(F)F)c2)C[C@@H]2CC[C@H]1N2C(=O)NCCNC(C)=O` | B2AR ag = -1
`Cc1cccc(-n2c(O)c(C=Nc3ccc(S(N)(=O)=O)cc3)c(=O)[nH]c2=O)c1` | Calb FLC = -3
`C=CCCC1(CC)C(=O)NC(=S)NC1=O` | B2AR ag = -1

(listing goes on)
SMILES | LANA-H2A inh | HNF4A DNA FP | Vif A3G | Calb FLC | ALR H2O2 inh | RanGTP-Imp inh | B2AR ag
COc1ccccc1CN1CCCC(C(=O)c2ccccc2SC)C1 (configuration not stated) | 0.9 | 0.2 | -3% | -9 | -7 | 3.2 | 4
CC=C(C)C(=O)OC1CCN2CC=C(COC(=O)C(O)(C(C)OC)C(C)(C)O)C12 (configuration not stated) | . | -3.5 | 0% | . | . | . | 12
COc1ccccc1N=C1SCCCN1C | -4.2 | -0.3 | -1% | 7 | -6 | 4.2 | 0
Cc1cc(C)nc(-n2c(C)nc3cc(Cl)ccc3c2=O)c1 | -1.7 | 1.4 | -1% | 2 | -3 | 6.3 | -5
COc1ccc2c(c1)c(C(=O)CN1CCN(C)CC1)c(C)n2Cc1ccccc1 | 1.5 | -1.1 | -2% | . | -2 | . | 2
O=C(c1ccc(F)cc1)N1CCC2(CC1)OCCO2 | 0.7 | 0.5 | -4% | 9 | -2 | -4.3 | -18
COc1ccc2c(c1OC)C(=O)O[C@@H]2[C@H]1c2cc3c(cc2CCN1C)OCO3 | -5.0 | 3.3 | . | . | -29 | . | -1
C/C(=N\N1CCCCCC1)c1c(O)n(-c2ccccc2)c(=O)[nH]c1=O | -4.9 | -0.7 | -2% | -3 | 71 | -1.2 | -19
Cc1cc(N2C(=O)C3CCCN3C2c2cccc(Cl)c2)no1 (configuration not stated) | -0.8 | -1.7 | 25% | -4 | -2 | -0.5 | -2
CCOP(=O)(OCC)/C(C#N)=C/c1ccc(Br)cc1 | 4.7 | -0.2 | . | -6 | . | 3.5 | 0
Cc1ccc(-c2nc3ccccc3c(=O)n2-c2ccc(Br)cn2)cc1 | 5.7 | -2.5 | -3% | -14 | 23 | 0.8 | -1
CCn1cc(C(=O)N2CCOCC2)c2ccccc21 | 2.1 | 2.7 | . | 9 | -2 | -1.1 | 5
CC(C)[C@@H]1NC(=O)c2cc([N+](=O)[O-])cc(I)c2NCCC[C@@H](C(=O)NC(CC(=O)O)C(N)=O)NC(=O)[C@H](CO)NC1=O (some centres not stated) | -6.3 | -4.9 | ? | -5 | -13 | 1.0 | -1
Cc1nc2sccc2c(=O)n1-c1ccccc1Cl | -0.7 | 0.5 | -4% | 11 | 1 | 5.0 | 2
O=C(O)CC1OCC=C2CN3CCC45C6=CC(=O)C(=O)C([N+](=O)[O-])=C6NC4C1C2CC35 (configuration not stated) | -4.3 | -4.4 | 16µM* | 59 | 61 | 6.2 | -5
Cc1cc(N2CCNCC2)nc2ccccc12 | 3.0 | 2.0 | -3% | 2 | -1 | -3.1 | 12
CCC(=NCc1cccnc1)c1c(O)n(-c2ccccc2C)c(=O)[nH]c1=O | 6.8 | 1.5 | -1% | -20 | . | -0.7 | -5
COC(=O)C1=C(c2cccc(OCc3ccccc3)c2)C[C@@H]2CC[C@H]1N2C(=O)NCc1cccc(C(F)(F)F)c1 | -4.3 | -1.9 | . | . | -3 | . | -9
CCOc1ccc(CN(CCCl)CCCl)cc1C(=O)OC | 0.4 | -0.8 | -3% | -5 | 10 | 0.1 | 5
COc1ccccc1[As](=O)(O)CC(O)COc1ccc(Cl)cc1Cl (configuration not stated) | 10 | . | -7% | 0 | 10 | -2.9 | .
CN[C@@H](C)[C@@H](O)c1ccccc1 | 1.5 | -1.0 | . | . | 6 | 4.5 | 0
Cc1c(N=Cc2c(O)n(Cc3ccc(F)cc3)c(=O)[nH]c2=O)c(=O)n(-c2ccccc2)n1C | 5.8 | -0.3 | -3% | -8 | -3 | ? | -3
COC(=O)C1=C(c2ccc(S(C)(=O)=O)cc2)C[C@@H]2CC[C@H]1N2C | -2.1 | -0.6 | . | . | -1 | . | 7
CC(=O)N(C)CC#CCN1CCC(O)CC1 | -0.4 | 0.4 | . | -8 | -15 | -1.2 | -2
CC(=O)c1cn(Cc2ccc(F)cc2)c2ccccc12 | -5.8 | 4.9 | 13% | -4 | -23 | 4.7 | -6

Following part
SMILES | LANA-H2A inh | HNF4A DNA FP | Vif A3G | Calb FLC | ALR H2O2 inh | RanGTP-Imp inh | B2AR ag
CCOc1ccc(NC(=O)c2ccc(NC(=O)COC(=O)Cc3ccccc3)cc2)cc1 | -0.6 | 2.9 | . | -22 | 0 | -2.4 | 0
C=CCN1C(=O)/C(=C/c2ccc(Br)s2)C(=O)NC1=S | -5.9 | -5.6 | 11% | 2 | 8 | 1.8 | 18
Cc1cc(C)cc(N2C(=O)NC(=O)/C(=C\c3cc(C)n(C)c3C)C2=O)c1 | -7.4 | 5.2 | . | 2 | -23 | -9.4 | -1
COC(=O)[C@@H]1C[C@H]1[C@@H](NP(=O)(c1ccccc1)c1ccccc1)c1ccccc1 | 0.2 | -3.3 | -1% | -4 | 8 | 1.3 | 7
N=C1c2ccccc2CN1NC(=O)c1ccc(F)cc1 | -0.2 | 3.4 | 4% | 2 | -9 | -3.3 | -4
CC(C)(O)/C=C/C(=O)C(C)(O)C1C(O)CC2(C)C3CC=C4C(C=C(O)C(=O)C4(C)C)C3(C)C(=O)CC12C (configuration not stated) | . | 1.8 | 4% | . | . | . | 42*
Cc1cc(C)n2c(Br)c(CN3CC4CC(C3)c3cccc(=O)n3C4)nc2n1 (configuration not stated) | -5.3 | 0.4 | . | -4 | . | ? | -14
COc1ccc(N/N=C/c2c(O)n(-c3cccc(C)c3)c(=O)[nH]c2=O)cc1 | -2.9 | 4.1 | . | 114* | 99* | -2.4 | 5
CCN(CC)C(=O)Oc1ccc(NC(=O)N2CCOCC2)cc1 | 8.0 | 1.1 | 13% | -10 | -16 | -4.9 | 4
CC(=O)Nc1ccc(S(=O)(=O)NC(CC(=O)N2CCC3(CC2)OCCO3)C(C)C)cc1 (configuration not stated) | -2.7 | 2.1 | 8% | 11 | -2 | 1.2 | 7
C=CCN1C(=O)NC(=O)/C(=C/c2ccoc2)C1=O | 7.2 | -2.9 | ? | -4 | -6 | ? | 30
CC(=O)[C@H]1CCC2C3CC[C@H]4C[C@@H](O)CC[C@]4(C)C3CC[C@@]21C (some centres not stated) | -0.5 | 1.6 | -6% | . | -4 | . | 8
Cc1cc(C(=O)OCC(=O)Nc2cccc(F)c2)c(C)n1C1CC1 | + | 3.1 | 5% | . | 0 | . | 3
CC1(C)COC(Nc2cccc(Cl)c2)=N1 | 2.1 | 1.1 | 26% | -14 | -4 | 2.7 | 3

Not all compounds are listed. The share of hits here may be higher or lower than overall.
